# VACV mCherry inh: vaccinia inhibition (mCherry reporter) | Vaccinia virus mCherry reporter infection, fluorescence; about a quarter of the inactives have no number | Potency, µM (series often up to 36.5 µM), without a hit: top-dose activity change, negative = inhibition, actives largely listed as inhibitors | hit rate 0.63% among 310,000 | AID 720579; active = well fitted inhibition curve with a large enough effect; inconclusive = small, poorly fitted or top-dose-only effect; inactive = no such curve, though single readings can be large or run the other way; tested in A549 cells; also: nearly all actives have a fitted effect of over 35% in size; inactives centre near -10
# VACV Venus inh: inhibitors of vaccinia virus (Venus reporter); Vaccinia virus Venus reporter expression, fluorescence; Potency, µM (top dose mostly 36.5 µM), without a hit: top-dose activity change, negative = inhibition, hits mostly inhibitors; hit rate 0.46% among 330,000; AID 720580; active means well fitted inhibition curve with a large enough effect; inconclusive means small, poorly fitted or top-dose-only effect; inactive means no such curve, though single readings can be large or run the other way; tested in A549 cells; also: nearly all actives have a fitted effect of over 30% in size; inactives centre near -10
# An asterisk follows results filed as active; i = inactive; ? = inconclusive; / = no result given; & = joins results of further samples; [ ] = another dose, or the depositor's remark. % is scaled to controls: 0 for no effect and ±100 for the full control effect; potency is read from the fitted curve at half-maximal effect.
SMILES,VACV mCherry inh,VACV Venus inh
O=C(COc1nnc2ccccn12)N1CCN(S(=O)(=O)c2ccccc2)CC1,-17.5%,-7.1%
Cn1c(NC(=O)CC(C)(C)C)cc(=O)n(C)c1=O,i,0.0%
COCCNC(=O)C(=O)NCC1OCCN1S(=O)(=O)c1ccc(C)cc1 (stereo not drawn),-0.9%,-19.0%
Cc1cc2nc(-c3ccncc3)cc(C(F)(F)F)n2n1,-3.4%,5.7%
Cn1c2c(c(=O)n(C)c1=O)[C@@]1(C(=O)Nc3ccccc31)C(C#N)=C(N)O2,-14.9%,6.1%
CSc1cnn(Cc2ccccc2)c(=O)c1SCc1ccccc1,i,-20.7%
Cc1cccc(C(=O)c2c(N)sc3c2CCCC3)c1,-2.2%,-4.5%
O=C(NCCCN1CCCC1=O)c1cc(-c2ccc(F)cc2)nc2ccccc12,-11.0%,-6.7%
COc1ccc(-c2csc(-c3nc(-c4ccc(Br)s4)cs3)n2)cc1F,1.7%,1.6%
Cc1ccc(OCC(=O)N/N=C/C=C/c2ccco2)cc1C,-11.1%,-17.7%
O=C(CN1C(=O)c2ccccc2S1(=O)=O)NCc1ccccc1Cl,4.6%,-13.1%
Cc1cccc(NC(=S)NC(NC(=O)OCc2ccccc2)C(Cl)(Cl)Cl)c1 (stereo not drawn),?,?
COc1ccc(C2(CNC(=O)Cc3ccc(OC)c(OC)c3)CCCC2)cc1,-10.8%,-8.9%
CC(=O)Nc1cccc(C(=O)N/N=C/c2cccnc2)c1,-8.9%,5.9%
CCN1C(=O)[C@@H]2[C@@H](c3ccc(SC4CCCCC4)cc3)N3CCC[C@@]3(C(=O)OC)[C@@H]2C1=O,-9.5%,-11.9%
CCCn1c(CCC(=O)Nc2cccc(CC)c2)nc2cccnc21,-8.9%,-8.1%
CCN1C[C@@H]2[C@@H]3C(=O)N(Cc4ccccc4)C(=O)[C@@H]3[C@](C)(C1=O)N2C(=O)c1ccc(F)cc1,-23.7%,-6.0%
Cc1ccc(NC(=O)CSc2nncc3ccccc23)cc1,-26.1%,-6.4%
COc1ccccc1N1CCN(CCCCOc2cccc3ccccc23)CC1,-13.9%,-13.5%
COc1ccc(Cl)cc1-c1n[nH]c(=S)n1C1CCCCC1,-17.3%,-8.4%
CCOC(=O)C1C(=O)NC(C)C1c1ccccc1 (stereo not drawn),/,-23.6%
Cc1ccc(S(=O)(=O)N(C)c2ccc(OC(=O)c3cc(=O)[nH]c4ccccc34)cc2)cc1,-13.4%,-18.3%
Cc1nc2ccc(NC(=S)N3CCC(C)CC3)cc2nc1C,i,-10.4%
OC(c1cccc(Cl)c1)c1nc(-c2cccc3cccnc23)cs1 (stereo not drawn),20.6%,3.5%
CC1Nc2ncnc(N3CCc4ccccc4C3)c2N(Cc2ccccc2)C1=O (stereo not drawn),1.3%,2.3%

# Some of these compounds in order of formula weight, smallest number first:
SMILES,VACV mCherry inh,VACV Venus inh
Cc1cccc(C(=O)c2c(N)sc3c2CCCC3)c1,-2.2%,-4.5%
CC(=O)Nc1cccc(C(=O)N/N=C/c2cccnc2)c1,-8.9%,5.9%
Cc1ccc(OCC(=O)N/N=C/C=C/c2ccco2)cc1C,-11.1%,-17.7%
Cc1ccc(NC(=O)CSc2nncc3ccccc23)cc1,-26.1%,-6.4%
Cc1cccc(NC(=S)NC(NC(=O)OCc2ccccc2)C(Cl)(Cl)Cl)c1 (stereo not drawn),?,?

# A run of entries taken from the entries so far:
SMILES,VACV mCherry inh,VACV Venus inh
Cc1cccc(NC(=S)NC(NC(=O)OCc2ccccc2)C(Cl)(Cl)Cl)c1 (stereo not drawn),?,?
COc1ccc(C2(CNC(=O)Cc3ccc(OC)c(OC)c3)CCCC2)cc1,-10.8%,-8.9%
CC(=O)Nc1cccc(C(=O)N/N=C/c2cccnc2)c1,-8.9%,5.9%
CCN1C(=O)[C@@H]2[C@@H](c3ccc(SC4CCCCC4)cc3)N3CCC[C@@]3(C(=O)OC)[C@@H]2C1=O,-9.5%,-11.9%
CCCn1c(CCC(=O)Nc2cccc(CC)c2)nc2cccnc21,-8.9%,-8.1%
CCN1C[C@@H]2[C@@H]3C(=O)N(Cc4ccccc4)C(=O)[C@@H]3[C@](C)(C1=O)N2C(=O)c1ccc(F)cc1,-23.7%,-6.0%
Cc1ccc(NC(=O)CSc2nncc3ccccc23)cc1,-26.1%,-6.4%

# New compounds follow:
SMILES,VACV mCherry inh,VACV Venus inh
O=C(NCCCc1ccccc1)C1CCC(CNc2c(N3CCCCC3)c(=O)c2=O)CC1 (stereo not drawn),i,-5.3%
CCOc1ccc(-c2csc(Cn3c(CN4CCN(C)CC4)nc4ccccc4c3=O)n2)cc1,21.0%,-12.1%
O=C1C=C(O)c2cccc(O)c2C1=O,-2.4%,-7.4%
C=CCn1c(=O)c(C(=O)Nc2ncccc2C)c(O)c2ccccc21,-22.1%,-19.8%
COc1ccc2c(c1)C(=O)N1[C@H]3c4cc(OC)ccc4OC[C@@H]3[C@H](c3ccccc3)[C@]1(C)C(=O)N2,-29.4%,?
CC(=O)CC1c2cc(F)ccc2C=C(c2ccsc2)N1c1ccc(-c2cccnc2)cc1 (stereo not drawn),10.0%,-0.2%
CCCCCSc1nnc(-c2cc(Br)ccc2N)c(=O)[nH]1,1.9%,3.6%
COC(=O)CN(C(=S)Nc1ccccc1)C1CC(=O)N(c2ccc(OC)cc2)C1=O (stereo not drawn),-15.7%,-6.9%
CN(C)c1nc(-c2cccs2)cc(C(F)(F)F)c1C#N,i,-1.8%
CC(CCc1ccccc1)N1CCN(Cc2ccccc2)CC1 (stereo not drawn),i,-9.9%
CCCCc1ccc(NC(=O)CSc2nc(=O)[nH]c3c2CCCC3)cc1,-7.7%[7.34 µM],-12.8%[7.34 µM]
CCc1sc(C(=O)NCCc2ccc(S(N)(=O)=O)cc2)cc1Br,-13.3%,-13.3%
O=C(Cn1nnc2ccccc21)N/N=C\C=C\c1ccccc1,-6.5%,-20.4%
CCCCN1C(=O)C(O)=C(C(C)=O)C1c1ccc(OC)cc1OC (stereo not drawn),/,-20.3%
Cc1ccc(S(=O)(=O)N2CCOC23CCN(S(=O)(=O)c2c(C)cc(C)cc2C)CC3)cc1,i,-23.4%
COc1cccc(-n2c(SCC(N)=O)nc3ccccc3c2=O)c1,3.9%,5.0%
CCOC(=O)c1cnc2c(C)cccc2c1NCc1ccco1,i,-5.7%
CCn1cc(Cl)c(C(=O)Nc2c(C)nn(Cc3c(F)c(F)c(F)c(F)c3F)c2C)n1,?,?
Cc1cc2ccccc2n2c(SCC(=O)Nc3ccc(S(=O)(=O)N4CCC(C)CC4)cc3)nnc12,-18.1%,?
Cc1ccc(S(=O)(=O)N(CC(=O)Nc2ccc(F)cc2)C(=O)N2CCN(C)CC2)cc1,-1.7%,-4.6%
Cc1ccc2c(c1)c1c(n2CC(O)Cn2nc(C)c(Br)c2C)C(=O)CCC1 (stereo not drawn),-4.1%,-1.6%
NC(=O)c1ccc(NS(=O)(=O)c2ccc(S(=O)(=O)N3CCCC3)cc2)cc1,-3.4%,-8.6%
CCCCCCCCCCCCCCC(C(=O)O)C(O)(CC(=O)OC)C(=O)O (stereo not drawn),-0.6%,0.0%
S=C(NCC1CCCO1)N1CCN(c2ccc(Cl)c(Cl)c2)CC1 (stereo not drawn),-29.3%,-21.6%
COc1ccc(OC)c(-n2cnc3cc(C(=O)NC4CCCCCC4)ccc32)c1,-5.2%,-14.3%
# (cont.)
SMILES,VACV mCherry inh,VACV Venus inh
CCOC(=O)N1CCN(C(=S)Nc2cc(S(=O)(=O)N3CCOCC3)ccc2Cl)CC1,-11.1%,-17.7%
Cc1ccc(N(C(=O)Cn2nnc3ccccc32)C(C(=O)NCc2ccco2)c2cccnc2)cc1 (stereo not drawn),/,2.3%
CN(C)c1ccc(-[n+]2c(-c3ccccc3)cc(-c3ccccc3)cc2-c2ccccc2)cc1,-19.9%,?
CCCn1nc(NC(=O)C2CCCO2)c2cc3ccc(C)cc3nc21 (stereo not drawn),?,-10.1%
Cc1cccc([C@@H]2[C@@H]3C(=O)N(Cc4ccccc4)C(=O)[C@@H]3[C@]3(Cc4ccccc4)C(=O)N(c4cccc(F)c4)C(=O)N23)c1,-3.4%,-13.4%
Cc1ccc2nc(CN3CCN(C(=O)Nc4cccc(C)c4C)CC3)oc2c1,-13.0%,-2.9%
CC(C)CC[n+]1ccccc1/C=C/c1ccc(N(C)C)cc1,i,/
CCc1nc2ccc(C(=O)Nc3cccc(NS(C)(=O)=O)c3)cn2c1N(C)CCCc1ccccc1,i,-6.6%
O=C(c1cccc(S(=O)(=O)NCc2ccccc2)c1)N1CCN(Cc2ccccc2)CC1,/,-8.2%
CCn1nnc(NC(=O)c2c(OC)cccc2OC)n1,-10.5%,-5.8%
O=C(O)c1cccc(CN2C(=O)c3ccccc3C2=O)c1,-5.0%,-8.9%
CC(=O)Nc1ccc(S(=O)(=O)Nc2ccc(S(=O)(=O)Nc3nccs3)cc2)cc1,i,-9.2%
CCCCn1c(N)c(N(CCOC)C(=O)c2cc3c(s2)CCC(C)C3)c(=O)[nH]c1=O (stereo not drawn),-21.3%,-8.0%
COc1cc(NC(=O)c2ccccc2[N+](=O)[O-])ccc1NC(=O)C(C)C,-4.3%,-14.2%
COc1cccc(NC(=O)N2CCCC2C(=O)NC(C)C)c1 (stereo not drawn),2.9%,-10.4%
Cc1cc(S(=O)(=O)n2[nH]c(=O)c(CCO)c2C)c(Cl)cc1Cl,-9.9%,-24.5%
Clc1ccccc1CNc1ncnc2nc[nH]c12,?,-17.8%&-22.9%&-11.7%
O=C(CSc1ncnc2sc(-c3ccccc3)cc12)NC1CCS(=O)(=O)C1 (stereo not drawn),?,?
CSCCC(NC(=O)c1cccc(C)c1)C(=O)OCN1C(=O)c2ccccc2C1=O (stereo not drawn),-13.7%,-12.5%
O=C1CCN(CCc2ccccc2)CCN1CCO,-0.8%&-20.4%,-1.9%&-9.2%
N#Cc1nc(-c2ccccc2Cl)oc1N1CCCCC1,/,-16.5%
CCCC1(CCC)NC(=O)N(CC(=O)Nc2cccc(OC)c2)C1=O,-4.2%,-9.9%
O=C1NC[C@@H](CCCCN2C[C@H](Cc3ccccc3)N(CCc3ccc(O)cc3)C(=O)C2=O)N(Cc2ccccc2)C1=O,-8.5%,-16.0%
O=C(Cc1ccccc1Cl)N1CCN(c2ccccn2)CC1,-2.7%,6.2%
Cc1ccc(C(C(=O)NC2CCCC2)N(Cc2ccc(F)cc2)C(=O)c2csnn2)o1 (stereo not drawn),-21.5%,-16.2%
# More structures.
SMILES,VACV mCherry inh,VACV Venus inh
O=C(CSc1ncccn1)NN=C1CCCCCCC1,/,-17.6%
CCCCCCCn1c(=O)c(C(=O)OC)c(N)c2ccccc21,-5.5%[7.34 µM],-10.9%[7.34 µM]
Cc1noc2ncnc(Sc3ccc(Cl)cc3)c12,/,-3.1%
CCOc1ccc(C(=O)CCC(=O)Nc2ccc(C)cn2)cc1,-10.5%,-1.8%
Cn1cccc1CC(=O)NNC(=S)Nc1ccc(Cl)cc1,-3.6%,-4.4%
CCSC1=C(C#N)C(c2ccc(C)s2)CC(=O)N1 (stereo not drawn),-2.8%,-3.6%
COC(=O)C1=C(C)N(Cc2ccco2)C(=O)C1,-14.5%,-4.5%
S=C(NCc1ccco1)N1CCN(c2nc(-c3ccc(Cl)cc3)cs2)CC1,-26.7%,-23.7%
COc1cccc(-c2noc(-c3ccc4c(c3)OCO4)n2)c1,-8.5%,-3.3%
Cc1ccc(S(=O)(=O)CC(c2ccccc2)N2CCOCC2)cc1 (stereo not drawn),-2.0%,-15.0%
O=c1cc(-c2ccccc2)n2c(SCc3ccc(F)cc3)nnc2[nH]1,-0.7%,-8.4%
COc1ccc(S(=O)(=O)Nc2cc(Sc3ncn[nH]3)c(O)cc2C)cc1,i,19.4%
Cc1ccccc1NC(=S)N1CCN(C(=O)c2ccco2)CC1,i,-13.2%
Cc1cc(NC(=O)CSc2nc3c([nH]c4ccccc43)c(=O)n2-c2ccccc2F)no1,-11.7%,?
COc1ccc(Cl)cc1Nc1nc(-c2sc(NC(=O)c3ccco3)nc2C)cs1,-26.8%,-22.8%
CCOC(=O)N1CCN(C(=O)CNC(=O)c2ccc(Cl)cc2)CC1,-15.5%,-7.3%
O=C(COc1ccccc1)Nc1nnc(C23CC4CC(CC(C4)C2)C3)s1,i,-27.5%
CC(=O)N1c2ccccc2C(C)(c2ccccc2)CC1(C)C (stereo not drawn),-24.6%,-21.7%
CC(C)CNC(=O)c1cccc(NC(=O)CSc2ccc(Cl)cc2)c1,-13.1%,-10.2%
c1ccc(COc2ncnc3c2ncn3CCCNCC2CCCO2)cc1 (stereo not drawn),i,-14.3%
COc1ccc(S(=O)(=O)N(CC(=O)N(C)Cc2ccccc2)c2ccc(Cl)cc2)cc1,-6.6%,-10.6%
CCCCOP(=O)(OCCCC)C(Nc1ccc(C(=O)OCC)cc1)c1ccncc1 (stereo not drawn),-8.6%,-14.0%
CCC(C)C(CO)NCCCn1cnc2c(OCc3ccccc3)ncnc21 (stereo not drawn),-2.7%,-7.1%
COc1cnc(-c2ccccn2)nc1N(C)C,?,-27.4%
CCCCc1noc2c1/C(=N\O)CC(c1ccccc1)C2 (stereo not drawn),/,?
# Next results
SMILES,VACV mCherry inh,VACV Venus inh
C=CC(=O)Nc1ccc(CN2C(=O)N(c3c(Cl)c(OC)cc(OC)c3Cl)Cc3cnc(NCCCCN(CC)CC)nc32)cc1,?,3.16µM*
O=C(NCc1ccncc1)C1CCN(S(=O)(=O)c2ccccc2)CC1,i,-12.4%
O=S(=O)(/N=C(/Nc1ccccc1)c1ccccc1)c1cccs1,i,-18.0%
N#Cc1nc(Cc2cccc3ccccc23)oc1NCCCN1CCOCC1,-7.5%,-19.8%
COc1cccc(CN(C)C(=O)c2ccc3nccnc3c2)c1,/,4.7%
COc1ccc(C(=O)Nc2ccc(C(=O)Nc3cccnc3)cc2)cc1,i,-21.1%

# Screening data as filed in PubChem.
